Ecoli growth: E. coli growth inhibition. Escherichia coli growth, OD600, 23 h; stronger effect = lower value. AID 1053175. hit rate 0.21% among 330,000. OD600 absorbance (test concentration not listed);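 active means OD600 absorbance below the run mean of sample wells minus 3.6 SD, in any replicate, cut at about 0.56 in these data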;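 further: stock transfer was 300 nL into about 60 µL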
rRNA inh HTS: inhibits bacterial ribosomal RNA function over humanized ribosomes; E. coli WT GFP vs humanized-ribosome RFP mutants, fluorescence, 24 h; stronger effect = lower value; DMSO median 0, no signal -100; GFP signal change (wild-type ribosome), % (concentration not given with the values); hit rate 1.6% among 350,000;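 active means significant combined selectivity score with lowered wild-type GFP, culture density cut under 30%, mutant RFP and density less affected; inactive means any of these conditions unmet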; further: one replicate is shown; some compounds called inactive have numbers as strong as hits
FGF22 binding: shifts melting point of recombinant human FGF22. Q9HCT0. recombinant FGF22 thermal shift, SYPRO orange fluorescence; percent of sucrose octasulfate shift, DMSO zero. calls only at 9.99 µM. hit rate 1.5% among 340,000. AID 651658;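 active means melting point raised past a set limit in the mean and every replicate; inconclusive means no clear call; three in four hits are not shown here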
Target sequence (Q9HCT0 whole entry, looked up): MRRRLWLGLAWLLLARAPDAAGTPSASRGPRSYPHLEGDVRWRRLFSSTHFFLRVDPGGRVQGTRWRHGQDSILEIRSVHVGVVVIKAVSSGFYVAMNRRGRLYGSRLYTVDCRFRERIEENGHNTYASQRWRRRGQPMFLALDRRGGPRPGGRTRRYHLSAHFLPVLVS
MLL AF4-AF9 inh: inhibitors of human MLL-AF4/AF9 interaction. hit rate 0.47% among 350,000. inhibition, % at 10 µM. P42568. AlphaScreen, biotin-AF4 peptide binding to FLAG-AF9;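 active means every replicate reaching a set inhibition limit, whatever the replicate mean, cut at about 25% in these data; inconclusive means mean inhibition reaches that limit but some replicates miss it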;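 further: 0% = plate neutral control median and 100% = total signal loss; the record names both 10 and 1 µM as test concentration; the first replicate is given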
Target sequence (P42568 whole entry, looked up): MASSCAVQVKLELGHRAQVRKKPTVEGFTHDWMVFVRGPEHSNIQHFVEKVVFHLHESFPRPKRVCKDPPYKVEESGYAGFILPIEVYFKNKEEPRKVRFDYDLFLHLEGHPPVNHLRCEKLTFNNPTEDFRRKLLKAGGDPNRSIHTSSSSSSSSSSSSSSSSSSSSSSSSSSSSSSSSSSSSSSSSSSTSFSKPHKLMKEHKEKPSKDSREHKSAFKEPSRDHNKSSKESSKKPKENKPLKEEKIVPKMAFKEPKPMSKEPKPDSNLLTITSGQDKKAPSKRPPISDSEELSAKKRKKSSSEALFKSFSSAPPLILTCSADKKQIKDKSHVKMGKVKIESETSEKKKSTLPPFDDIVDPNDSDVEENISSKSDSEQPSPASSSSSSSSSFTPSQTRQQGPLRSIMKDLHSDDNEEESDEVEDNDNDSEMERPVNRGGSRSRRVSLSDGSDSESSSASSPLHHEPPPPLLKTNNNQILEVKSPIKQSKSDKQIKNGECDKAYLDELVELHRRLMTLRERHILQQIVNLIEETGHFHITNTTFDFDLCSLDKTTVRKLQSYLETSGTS
ALR inh: human ALR oxidase inhibition via reduced H2O2. inhibition, % (no concentration beside the values). P55789. purified ALR, DTT oxidation, H2O2 HRP-luminol luminescence. hit rate 3.8% among 290,000;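 active means mean and each replicate at 75% or more; inconclusive means only one of the two met; inactive means neither met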;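 further: stock transfer was 7.5 nL into about 7.5 µL; 0% = neutral wells and 100% = wells with inactivated enzyme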
Target sequence (P55789 whole entry, looked up): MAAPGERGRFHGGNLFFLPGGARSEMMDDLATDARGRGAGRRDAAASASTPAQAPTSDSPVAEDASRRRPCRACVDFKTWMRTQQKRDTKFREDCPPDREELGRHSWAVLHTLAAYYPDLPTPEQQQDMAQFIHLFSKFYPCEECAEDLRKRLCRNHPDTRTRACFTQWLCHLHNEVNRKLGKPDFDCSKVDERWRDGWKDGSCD
Vif TR-FRET: inhibitors of Vif binding to APOBEC3G peptide, primary screen, biochemical, TR-FRET, GST-Vif 1-94, biotin-A3G peptide, dose response retest (AID 1117319) | hit rate 0.57% among 260,000 | TR-FRET GST-Vif / biotin-A3G peptide binding; higher % means a stronger effect; test concentration not given here; strong numbers were not always called active | inhibition, %; hits with a dose series show IC50 in µM;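 active means above the screen mean plus three standard deviations and confirmed in dose response; inconclusive means results disagree or hit not tested in dose response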;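 further: Vif residues 1-94 fused to GST binding biotinylated APOBEC3G peptide 110-148; 0% = full assay without inhibitor and 100% = GST in place of GST-Vif; retest series ran down from 100 µM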
HNF4A DNA FP: change in binding of human HNF4 alpha to DNA; HNF4a-FITC DNA binding, fluorescence polarization, 1 h; activity change, % at 10 µM; hit rate 0.3% among 360,000; AID 1224865; in the data active means activity change above about 30%, passing the limit was not always enough;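 further: controls were the assay level and a saturating level of protein; the project sought stronger binding though the title names inhibitors; some compounds called inactive have numbers as strong as hits; positive values seem to mean higher polarization but the record does not say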
rRNA inh HTS OD600: recorded beside rRNA inh HTS, whose call it bears; OD600 change, %; measured here: OD600 growth;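 optical density of the mix in the first replicate; 0 = DMSO median and -100 = no signal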
rRNA inh HTS RFP: further read-out of rRNA inh HTS, marked with its call; RFP signal change, %; measured here: RFP humanized mutant strains;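 first replicate; 0 = DMSO median and -100 = no signal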
Active calls of the source: *; i = inactive; ? = inconclusive; · = not tested or not shown. The list is partial; rates above refer to the full screens.

SMILES | Ecoli growth | rRNA inh HTS | rRNA inh HTS OD600 | rRNA inh HTS RFP | FGF22 binding | MLL AF4-AF9 inh | ALR inh | Vif TR-FRET | HNF4A DNA FP
COc1ccc(NC(=S)c2ccncc2)cc1 | 0.67 | · | · | · | · | · | 8 | -8% | 2.0
COc1ccc(C(=O)NC(=O)Nc2ncccc2C)cc1 | 0.64 | · | · | · | · | · | -4 | 7% | 4.1
Cc1c(NC(=O)c2cccs2)cccc1C(=O)O | 0.74 | · | · | · | · | · | -7 | ? | -3.5
Cc1cc(C(=O)Nc2ccc3c(c2)C(=O)N(C)[C@H]2CC[C@H](CC(=O)NC4CCCC4)O[C@H]2CO3)no1 | · | -3 | 4 | 0.5 | i | 1.2 | · | · | ·
COc1ccc(NC(=O)Nc2ccc3c(c2)CC(=O)N([C@@H](C)CO)C[C@@H](C)[C@@H](CN(C)S(=O)(=O)c2ccc(F)cc2)O3)cc1 | · | 5 | -9 | 1.7 | i | 2.0 | · | · | ·
C[C@H](NC(=O)C[C@@H]1C=C[C@@H](NC(=O)Cc2ccccn2)[C@H](CO)O1)c1ccccc1 | · | 2 | 6 | 0.3 | i | 0.7 | · | · | ·
COc1ccc(CN2CCCC(C(=O)c3cccc(OC(C)C)c3)C2)cc1Cn1cccn1 (stereo not drawn) | 0.64 | -8 | -16 | -0.9 | i | -4.3 | · | · | -3.5
N#C[C@H]1[C@@H](c2ccccc2C2=CCCCC2)[C@@H](CO)N1C(=O)C1CCOCC1 | · | -2 | -5 | -3.1 | i | -1.9 | · | · | ·
Cc1ccc2c(C)c(C(=O)Nc3c(C)n(C)n(-c4ccccc4)c3=O)oc2c1C | 0.64 | · | · | · | · | · | 2 | -3% | -1.7
C[C@H]1CN([C@@H](C)CO)C(=O)c2cccc(NS(=O)(=O)c3ccc(F)cc3)c2O[C@H]1CN(C)CC1CC1 | · | 3 | 1 | 0.8 | i | -2.5 | · | · | ·
CCNC(=O)COC(=O)c1csc2c1CCCC2 | 0.66 | · | · | · | · | · | 32 | 19% | 4.8
Cc1ccccc1NC(=O)COc1coc(CN2CCN(Cc3ccccc3)CC2)cc1=O | 0.68 | 4 | 1 | 3.4 | i | -16 | · | 3% | -4.8
O=C(C[C@@H]1CC[C@@H]2NC[C@H](O)COC[C@H]2O1)NCCc1ccncc1 | · | 3 | 3 | 1.7 | i | -1.8 | · | · | ·
COc1ccccc1NC(=O)c1ccc(C)c(S(=O)(=O)N2CCCCC2)c1 | 0.72 | -1 | -13 | -2.8 | i | -5.0 | -6 | · | 0.5
O=C(NCC[C@@H]1CC[C@@H](NS(=O)(=O)c2ccc(F)cc2)[C@@H](CO)O1)Nc1ccc(F)cc1 | · | -7 | -8 | 0.5 | i | 12 | · | · | ·
O=C(Nc1cc(N2CCOCC2)ncn1)c1ccc(F)cc1 | 0.66 | -1 | 8 | 2.9 | i | -4.8 | -12 | -9% | -0.8
CCOC(=O)N1CCN(S(=O)(=O)c2ccc(F)c(C(=O)Nc3cccc(C)c3C)c2)CC1 | 0.71 | 10 | 4 | 2.6 | i | 4.1 | -17 | -3% | 0.8
CSc1nc2c(c(=O)[nH]1)C(c1cccs1)C1=C(CCCC1=O)N2 (stereo not drawn) | 0.74 | · | · | · | · | · | · | ? | -3.9
CC1(C)Cc2ccccc2-c2nnc(-c3ccc4ccccc4n3)n21 | 0.76 | · | · | · | · | · | -6 | -4% | -3.0
CCCCNC(=O)C1(C)CCCCN1C(=O)c1ccc(OC)c(C(F)(F)F)c1 (stereo not drawn) | · | -4 | 0 | -2.3 | i | -1.4 | · | · | -0.5
COc1ccc(CN2CCNC(=O)C2CC(=O)NCC(C)(C)N2CCOCC2)cc1C (stereo not drawn) | 0.63 | 14 | 9 | -0.9 | i | -4.9 | 2 | -6% | 2.5
Cc1cc(=O)c2c(O)c(O)ccc2o1 | 0.71 | · | · | · | · | -0.7 | · | >100µM* | 0.6
COC(=O)C1=C(N)Oc2cc(C)n(Cc3cccnc3)c(=O)c2C1c1ccc(OC)c(OC)c1OC (stereo not drawn) | 0.76 | · | · | · | · | · | 1 | -5% | 1.9
Cc1c(Cl)cccc1NC(=O)NCc1ccncc1 | 0.71 | 11 | 10 | 1.4 | i | -4.6 | -12 | ? | 2.7
CC1CCN(CCNC(=O)c2ccc3c(=O)n(Cc4ccc(Cl)cc4)c(=S)[nH]c3c2)CC1 | 0.71 | · | · | · | · | · | 3 | · | 3.3
O=C(NCc1ccc2c(c1)OCO2)c1cc([N+](=O)[O-])ccc1N1CCCCC1 | 0.71 | · | · | · | · | · | 49 | · | -2.4
CC(=O)N(C)C[C@@H]1Oc2cc(C#CCC3CCCC3)ccc2S(=O)(=O)N([C@@H](C)CO)C[C@@H]1C | · | -3 | -6 | 1.6 | i | 8.7 | · | · | ·
Cc1ccc(S(=O)(=O)NCCCNS(=O)(=O)c2ccccc2[N+](=O)[O-])cc1 | 0.58 | -4 | -3 | -3.4 | i | 2.3 | -9 | · | -1.4
CO[C@H]1CN(C)C(=O)c2ccc(NC(=O)NC(C)C)cc2OC[C@@H](C)N(C(=O)C2CCC2)C[C@H]1C | · | 2 | -1 | -0.1 | i | -4.3 | · | · | ·
C[C@@H]1CN([C@@H](C)CO)C(=O)Cc2cc(NC(=O)Nc3ccc4c(c3)OCO4)ccc2O[C@@H]1CN(C)C(=O)Nc1ccc(C(F)(F)F)cc1 | · | 3 | -3 | -0.6 | i | 5.6 | · | · | ·
O=C1C=C(Nc2cccc(Cl)c2)CC(c2ccco2)C1 (stereo not drawn) | 0.68 | 3 | 8 | 2.7 | i | -0.6 | -4 | 20% | -1.2
O=C(c1cccs1)N1CCN(Cc2cn[nH]c2-c2ccc(F)cc2F)CC1 | 0.7 | 5 | 9 | -0.1 | i | -1.6 | · | · | -3.4
CN1CCN(c2ncnc3c2c(-c2ccccc2)cn3-c2ccc(F)cc2)CC1 | 0.72 | -22 | -20 | -4.3 | i | 16 | -4 | 32% | -2.5
O=C1c2ccccc2C(=O)N1Cc1cnc(N2CCN(c3ccccc3)CC2)s1 | 0.7 | -28* | -21* | 3.6* | i | -0.7 | 8 | -1% | -9.3
COc1cccc(N2CCN(C(=S)Nc3ccccc3)CC2)c1 | 0.65 | 1 | -3 | -3.5 | i | -1.5 | 23 | 7% | -1.6
COCCn1c(C)cc(C(=O)CSc2nnc(C)s2)c1C | 0.73 | · | · | · | · | · | 10 | 15% | -1.6
CCOC(=O)N1CCN(C(=O)Cn2cnc3ccccc3c2=O)CC1 | 0.69 | 14 | 19 | 0.3 | i | -1.5 | -6 | -9% | -2.3
C[C@@H]1CN([C@@H](C)CO)C(=O)Cc2cc(NC(=O)NC3CCCCC3)ccc2O[C@@H]1CN(C)Cc1ccncc1 | · | -3 | -9 | -1.8 | i | -2.0 | · | · | ·
CCOC(=O)c1ccc(NC(=S)P(=O)(c2ccccc2)c2ccccc2)cc1 | · | -52 | -52 | -0.2 | i | 9.1 | · | 6% | -0.5
Cc1cc(C(=O)CSc2nnc(N)s2)c(C)n1-c1c(C)n(C)n(-c2ccccc2)c1=O | 0.77 | · | · | · | · | · | · | 11% | -2.7
COc1ccc(/C=N\NC(=O)/C(=C\Nc2nccc(C)n2)NC(=O)c2ccccc2)cc1 | · | · | · | · | · | · | 8 | 13% | -1.2
O=C1C=C(c2ccc(-c3ccccc3)c(F)c2)C[C@@H](c2ccc3c(c2)OCO3)C1 | · | 7 | 4 | 6.8 | i | 0.1 | -1 | · | 0.1
Cc1ccc(Cn2ncc3c(N4CCOCC4)ncnc32)cc1 | 0.7 | · | · | · | · | · | -8 | 15% | 0.4
C[C@H]1CN([C@@H](C)CO)C(=O)c2cc(NS(C)(=O)=O)ccc2O[C@H]1CN(C)Cc1ccccc1 | · | 2 | 3 | -3.5 | i | -5.6 | · | · | ·
Cc1cc(OCC(=O)NCc2ccncc2)c2c(C)c(C)c(=O)oc2c1 | 0.67 | -6 | 4 | -5.0 | i | -0.4 | -1 | · | -0.2

Next part; it opens with the 3 that closed the last part.
SMILES | Ecoli growth | rRNA inh HTS | rRNA inh HTS OD600 | rRNA inh HTS RFP | FGF22 binding | MLL AF4-AF9 inh | ALR inh | Vif TR-FRET | HNF4A DNA FP
Cc1ccc(Cn2ncc3c(N4CCOCC4)ncnc32)cc1 | 0.7 | · | · | · | · | · | -8 | 15% | 0.4
C[C@H]1CN([C@@H](C)CO)C(=O)c2cc(NS(C)(=O)=O)ccc2O[C@H]1CN(C)Cc1ccccc1 | · | 2 | 3 | -3.5 | i | -5.6 | · | · | ·
Cc1cc(OCC(=O)NCc2ccncc2)c2c(C)c(C)c(=O)oc2c1 | 0.67 | -6 | 4 | -5.0 | i | -0.4 | -1 | · | -0.2
Cc1ccc(NC(=O)C2C(c3ccccc3)C=CC(c3ccccc3)C2C(=O)O)cc1 (stereo not drawn) | 0.78 | · | · | · | · | · | 4 | 9% | 1.9
CSc1cccc(NC(=S)NCCCO)c1 | 0.71 | 6 | -5 | 1.7 | i | · | -58 | -4% | 1.7
CN(C)c1nc(N)nc2c1ncn2C1OC(CO)CC1O (stereo not drawn) | · | · | · | · | i | 0.5 | · | · | 7.2
Cc1ccc(C23CC4CC(CC(C(N)=O)(C4)C2)C3)cc1 | 0.66 | -23* | -15* | 1.1* | i | 4.3 | -15 | · | 2.2
COc1ccc(NC(=O)CCNS(=O)(=O)c2cccc3nonc23)cc1Cl | 0.7 | -26 | -25 | -2.3 | i | 1.2 | · | 8% | 3.0
CCN(CC(=O)Nc1ccccc1C(F)(F)F)C(=O)c1cc(-c2cccs2)nn1-c1ccccc1 | 0.7 | 2 | 5 | 1.5 | i | -0.3 | 4 | -12% | 2.4
CCNC(=O)[C@@H]1[C@@H](CO)[C@@H]2Cn3c(ccc(C4=CCCCC4)c3=O)[C@H]1N2Cc1cocn1 | · | 1 | 5 | -0.2 | i | -0.8 | · | · | ·
CN(CCC1CCOCC1)C(=O)C1CCC(=O)N(CCc2ccc(Cl)cc2)C1 (stereo not drawn) | 0.7 | -1 | -2 | -2.7 | i | 1.0 | -8 | 0% | 0.9
CCOc1ccccc1N(CC(=O)Nc1ccc(S(=O)(=O)N2CCOCC2)cc1)S(C)(=O)=O | 0.7 | 1 | 6 | -1.5 | · | 0.3 | -12 | · | 1.8
O=C(CCC1CCCCC1)NC1=NCCS1 | 0.67 | · | · | · | · | · | -2 | 12% | -2.6
C[C@@H]1CCCCO[C@@H](CN(C)Cc2ccc3c(c2)OCO3)[C@H](C)CN([C@@H](C)CO)C(=O)c2cc(NC(=O)CCCN(C)C)ccc2O1 | · | 3 | 7 | -2.9 | i | 0.4 | · | · | ·
CCOc1cc(CNc2ccc(N3CCCC3)cc2)cc(Cl)c1OC | 0.69 | -2 | 4 | 12 | i | ? | 36 | ? | 3.8
Cn1c(SCC(=O)c2ccc3c(c2)NC(=O)CO3)nc2ccccc21 | 0.72 | -30 | -40 | -3.6 | i | 0.9 | · | · | 3.1
COc1ccc(S(=O)(=O)NCCN2CCOCC2)c2ccccc12 | 0.64 | · | · | · | · | · | -20 | 2% | -0.3
CCn1ccc(C(=O)Nc2ncc(C)s2)n1 | 0.64 | 4 | 9 | 0.6 | i | -2.1 | -8 | · | 1.1
Cc1cc(C)n(C(CC(=O)O)C(=O)O)n1 (stereo not drawn) | 0.66 | · | · | · | · | · | 0 | 3% | -0.9

Bioassay records: PubChem, several laboratories
